D2 PAM: positive allosteric modulators of human D2 dopamine receptor; P14416; DiscoveRx D2 beta-arrestin cells, luminescence, 90 min; 100% = 57 uM dopamine signal; potentiation, % (no concentration beside the values); actives 0.23% (n = 360,000); active = potentiation of 50% or more; inconclusive = 30% to 50%; inactive = 30% or less;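 note: compound concentration not given in the record; tested on top of an EC20 dose of dopamine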
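D2 cells co-treated with compound plus 50 nM dopamine (EC20) for 90 min at 37 deg C to detect potentiation. Beta-arrestin recruitment was read as enzyme-fragment luminescence after 1 h at ambient temperature. Full response was set by 57 uM dopamine.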
TRPV1 potentiator: human TRPV1 potentiation. Q8NER1. TRPV1-expressing cells, Fluo-8 calcium influx, capsaicin EC20 potentiation; host cell line not named in the record; control for the full effect not named in the record. potentiation, % at 8.33 µM. AID 540277. actives 0.02% (n = 320,000); active means potentiation above 80%; inconclusive means 30% to 80%; inactive means below 30%; note: 0% is about no effect
Target sequence (Q8NER1 whole entry, looked up): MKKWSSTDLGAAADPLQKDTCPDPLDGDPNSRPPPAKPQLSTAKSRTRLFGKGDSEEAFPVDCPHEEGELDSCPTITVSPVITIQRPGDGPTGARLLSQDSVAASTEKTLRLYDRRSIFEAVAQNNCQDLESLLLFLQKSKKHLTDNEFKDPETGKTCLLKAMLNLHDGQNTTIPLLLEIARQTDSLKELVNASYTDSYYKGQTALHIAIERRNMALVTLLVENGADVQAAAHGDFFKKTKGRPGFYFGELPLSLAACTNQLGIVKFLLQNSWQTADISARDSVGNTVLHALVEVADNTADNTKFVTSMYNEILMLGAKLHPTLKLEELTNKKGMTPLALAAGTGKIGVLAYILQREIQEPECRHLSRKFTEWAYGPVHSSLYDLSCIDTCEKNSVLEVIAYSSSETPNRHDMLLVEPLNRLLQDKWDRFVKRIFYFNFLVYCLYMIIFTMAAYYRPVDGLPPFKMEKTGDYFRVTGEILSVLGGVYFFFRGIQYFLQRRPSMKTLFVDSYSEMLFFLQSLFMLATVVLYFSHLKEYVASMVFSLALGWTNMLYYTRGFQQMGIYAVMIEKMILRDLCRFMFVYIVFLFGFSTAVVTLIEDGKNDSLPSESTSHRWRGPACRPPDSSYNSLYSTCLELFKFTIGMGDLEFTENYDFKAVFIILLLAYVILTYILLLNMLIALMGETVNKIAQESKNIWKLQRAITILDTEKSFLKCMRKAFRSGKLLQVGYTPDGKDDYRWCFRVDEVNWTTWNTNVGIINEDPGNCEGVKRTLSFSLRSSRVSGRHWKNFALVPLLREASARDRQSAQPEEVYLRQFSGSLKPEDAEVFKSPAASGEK
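Fluo-8 calcium influx in TRPV1-expressing cells, kinetic read (ex 480/em 520 nm). Compound added and read 3 min for agonist activity, followed by capsaicin at EC20 final and 2 min further read for enhancement.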
Six1-Eya2 inh: inhibitors of human Six1/Eya2 interaction. Q15475+O00167. AlphaScreen GST-Six1/His-Eya2 binding, biochemical; stronger effect = lower value; control for the full effect not named in the record. activity change, % (concentration not given with the values). actives 0.56% (n = 360,000). AID 651725; in the data active = activity change below about -65%; inconclusive = about -30% to -65%; inactive = above about -30%; note: % is set by controls: 0 for no effect and ±100 for the full control effect
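Compounds are tested against tagged Six1 and Eya2 proteins bridged by glutathione donor and nickel acceptor beads; after a one-hour incubation at 37 °C without light, AlphaScreen emission is recorded.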
Sfp inh: blocks B. subtilis Sfp PPTase activity | Q9F4F7 | Biochemical Sfp PPTase activity, qHTS | Potency, µM, inactives show max response, negative = inhibition, usual class: inhibitors | actives 3.5% (n = 310,000); active = well fitted inhibition curve with a large enough effect; inconclusive = small, poorly fitted or top-dose-only effect, or another doubt; inactive = no such curve, though single readings can be large or run the other way;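 note: the enzyme is Sfp with the accession as filed and its product quenches rhodamine fluorescence; potency is the fitted concentration of half-maximal effect; 0% = enzyme reaction without inhibitor and -100% = no enzyme wells; top concentration of the series not given in the record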
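Compounds were incubated with enzyme (final 15 nM) for 15 min at room temperature before substrate addition started the reaction. Fluorescence at 525 nm excitation, 598 nm emission was recorded immediately and after 30 minutes.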
D2 ag: human D2 receptor agonism in beta-arrestin assay; P14416; DiscoveRx PathHunter D2 beta-arrestin, luminescence, 90 min; 100% = 57 uM dopamine signal; activation, % (concentration not given with the values); actives 0.084% (n = 360,000); in the data active = activation above about 40%; inconclusive = about 15% to 40%; inactive = below about 15%; note: compound concentration not given in the record; the text of the record calls up to 30% inactive
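DiscoveRx PathHunter D2 beta-arrestin cells (2,100/well) attached overnight, then compound-stimulated 90 min at 37 C in HBSS/10 mM HEPES/0.1% Tween-20 buffer; beta-galactosidase complementation read by luminescence after 1 h at ambient temperature. Dopamine 57 uM final (EC100) as control.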
CtBP-E1A blk: blocks the CtBP interaction with E1A; AlphaScreen GST-E1A/His-CtBP binding, 1536-well; stronger effect = lower value; control for the full effect not named in the record; activity change, % (concentration not given with the values); actives 0.49% (n = 340,000); in the data active means activity change below about -65%; inconclusive means about -30% to -65%; inactive means above about -30%; note: % is set by controls: 0 for no effect and ±100 for the full control effect
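GST-E1A and His-tagged CtBP (125 nM each as 5X stock) were preincubated with pin-transferred compound for 2 h at 37 °C in the dark, then glutathione donor and nickel acceptor beads were added for 1 h before AlphaScreen reading.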
PINK1 expr mod: PINK1 expression modulation; actives 0.2% (n = 410,000); Potency, µM (doses to about 76.6 µM), for the others: top-dose activation (PINK1 increase), usual class: activators; PINK1 immunofluorescence, high-content cytometry, 24 h; active = well fitted activation curve with a large enough effect; inconclusive = small, poorly fitted or top-dose-only effect; inactive = flat fitted curve, though single readings scatter; cell line not stated here;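 note: potency is the fitted concentration of half-maximal effect; % of control where 0% means no effect; nearly all actives have a fitted effect of over 65% in size; a mitochondrial uncoupler was the plate control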
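Compound titrations (5 concentrations, 24 h) on a stable cell line; DMSO and CCCP controls. Endpoint: fixed-cell PINK1 immunofluorescence with mitochondrial, cell and nuclear markers, scanned by microplate cytometer.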
* hit, by the source's call; ? = inconclusive; . = no result given; & = joins results of further samples; [ ] = remark or other dose.

Short forms: A = D2 PAM; B = TRPV1 potentiator; C = Six1-Eya2 inh; D = Sfp inh; E = D2 ag; F = CtBP-E1A blk; G = PINK1 expr mod
Cn1c(/C=C/c2ccc(Cl)cc2Cl)c([N+](=O)[O-])c(=O)n(C)c1=O
  A = 0	B = -11	C = -2	D = -11%	E = -5.7	F = -3	G = 1.5%

Cn1c(=O)c(=O)n(C)c2cc(S(=O)(=O)CCC(=O)Nc3cccc(C(F)(F)F)c3)ccc21
  A = -9	B = 0	C = 0	D = 15%	E = -2.2	F = 1	G = -1.1%&-0.3%

CCC(CC)C(=O)Nc1nnc(S(=O)(=O)N2CCCC2)s1
  A = -4	B = 26	C = 6	D = 10%	E = 0.0	F = 3	G = -0.1%

COC(=O)N1CCCCC1c1cc(C(=O)NCc2ccc(Cl)c(Cl)c2)no1 (stereo unspecified)
  A = -7	B = .	C = 0	D = .	E = -4.9	F = 2	G = -0.1%

COc1ccc2c(CCNC(=O)c3ccco3)c[nH]c2c1
  A = -8	B = 20	C = -5	D = -3%	E = -2.7	F = 0	G = 0.6%

O=C(c1cc(-c2cccc(O)c2)on1)N1CCCC1
  A = 2	B = -4	C = -14	D = 14%	E = -0.5	F = -7	G = 7.1%

CN(C)c1ccc([N+](=O)[O-])cc1C(=O)O
  A = -12	B = 7	C = 3	D = 5%	E = -2.7	F = -3	G = 1.5%

Cc1ccc(NCc2nnc(SCCN3CCCCC3)n2CC2CCCO2)cc1Cl (stereo unspecified)
  A = -25	B = -8	C = 3	D = 8%	E = -5.1	F = 0	G = -2.0%

CC(=O)N(C)c1ccc(NC(=O)C(F)(F)F)cc1
  A = -4	B = -28	C = 3	D = 6%	E = -1.0	F = 3	G = 6.1%[38.3 µM]

Clc1ccc(COc2ccccn2)cc1Cl
  A = 5	B = ?	C = 0	D = 19%	E = -3.2	F = -11	G = -1.6%

Cc1ccc(F)cc1CNC(=O)C1CCC(=O)N(C2CC2)C1 (stereo unspecified)
  A = -4	B = 7	C = 12	D = 12%	E = 0.8	F = 1	G = 4.3%

COc1cc(C(=O)Nc2cc(S(=O)(=O)N3CCOCC3)ccc2N2CCN(C)CC2)cc(OC)c1OC
  A = -4	B = .	C = -2	D = .	E = -1.7	F = 0	G = 2.2%

Cc1cc(C)nc(-n2nc(C)cc2Nc2ccccc2)n1
  A = -15	B = -4	C = ?	D = 0%	E = -6.5	F = -21	G = 0.9%

Cc1ccccc1-c1nnc(SCCOc2ccc3c(C)cc(=O)oc3c2)o1
  A = 7	B = 11	C = 4	D = 1%	E = -1.2	F = 8	G = 0.6%

O=C(O)c1sccc1Oc1ccc(NS(=O)(=O)c2ccccc2)cc1
  A = -1	B = -1	C = 1	D = 3%	E = -2.6	F = -3	G = 3.5%

Continued, overlapping the part above by 2 compounds.
Short forms: A = D2 PAM; B = TRPV1 potentiator; C = Six1-Eya2 inh; D = Sfp inh; E = D2 ag; F = CtBP-E1A blk; G = PINK1 expr mod
Cc1ccccc1-c1nnc(SCCOc2ccc3c(C)cc(=O)oc3c2)o1
  A = 7	B = 11	C = 4	D = 1%	E = -1.2	F = 8	G = 0.6%

O=C(O)c1sccc1Oc1ccc(NS(=O)(=O)c2ccccc2)cc1
  A = -1	B = -1	C = 1	D = 3%	E = -2.6	F = -3	G = 3.5%

CCCCCC(=O)N1C[C@@H](O)[C@H](n2cc(COC(=O)c3ccccc3)nn2)C[C@@H]1c1ccc(C)cc1
  A = -4	B = .	C = 4	D = .	E = -5.4	F = -5	G = -1.5%

CCCOC(=O)c1ccc(NC(=O)C2CCCO2)cc1 (stereo unspecified)
  A = 6	B = 5	C = 6	D = ?	E = 2.2	F = 3	G = -1.2%

O=C(Nc1cccc(Cl)c1Cl)c1cc(S(=O)(=O)NCCc2ccccc2)ccc1F
  A = 12	B = 15	C = 10	D = 1%	E = 0.3	F = -8	G = 9.8%&9.8%

CCOC(=O)c1ccc(-n2[nH]c(-c3ccccc3)cc2=O)cc1
  A = -14	B = 7	C = 3	D = 17%	E = -4.8	F = 22	G = 28%[38.3 µM]

O=C(COC(=O)Cn1cnc2ccccc21)Nc1cccc(S(=O)(=O)N2CCOCC2)c1
  A = -7	B = -10	C = 0	D = 7%	E = -0.8	F = 6	G = -0.3%

O=C(Oc1ccccc1)N1CCN(c2ccc(F)cc2)CC1
  A = -1	B = -10	C = -3	D = -15%	E = 1.6	F = -1	G = -0.6%

COc1ccc(-c2cc(NC=O)c3ncc(-c4cccc(C(C)=O)c4)n3c2)cc1
  A = -11	B = .	C = -18	D = .	E = -10	F = -17	G = 7.5%

CCOC(=O)N1CCN(C(=O)c2c(-c3c(Cl)cccc3Cl)noc2C)CC1
  A = -1	B = 23	C = -2	D = 13%	E = -0.9	F = 6	G = 4.7%

CC(=O)c1ccc(-c2cccs2)s1
  A = -6	B = -5	C = 9	D = 16%	E = -0.5	F = 18	G = -0.4%

CC(CCC(=O)O)C1CCC2C3CCC4C[C@H](O)CCC4(C)C3CC(=O)C12C (stereo partly specified)
  A = -6	B = -9	C = 1	D = 13%	E = -3.3	F = 0	G = -0.6%

CC(C)CSc1nc2ccccc2[nH]1
  A = -3	B = -18	C = 2	D = 12%	E = -5.6	F = 1	G = 1.2%

Cc1cc(N(C)C)ccc1[N+](=O)[O-]
  A = -28	B = 0	C = -9	D = -25%	E = -5.6	F = -3	G = 11%

COc1ccc(NC(=O)C2CCN(S(=O)(=O)c3ccc4c(c3)NC(=O)C(C)S4)CC2)cc1 (stereo unspecified)
  A = -11	B = 11	C = -1	D = 11%	E = -1.8	F = 4	G = 7.0%

S=C(NCCCc1ccccc1)Nc1ccccc1Cl
  A = -16	B = 3	C = 9	D = 2%	E = -2.3	F = 4	G = ?

CCOc1ccc(-n2c(SCc3nc(-c4ccc(C)cc4)no3)nnc2-c2ccncc2)cc1
  A = -8	B = -7	C = -7	D = -14%	E = -3.6	F = -11	G = -4.2%[38.3 µM]

The list continues.
Short forms: A = D2 PAM; B = TRPV1 potentiator; C = Six1-Eya2 inh; D = Sfp inh; E = D2 ag; F = CtBP-E1A blk; G = PINK1 expr mod
COc1ccc(OC)c(NC(=O)COc2ccc(S(=O)(=O)NC(C)C)cc2)c1
  A = -6	B = 1	C = -8	D = 9%	E = 2.9	F = -20	G = .

O=C1CC(=O)N2N=C(c3ccc([N+](=O)[O-])cc3)SC2=N1
  A = 25	B = 26	C = -15	D = 1%	E = 8.2	F = -16	G = 1.3%

O=C(CN1C(=O)CSc2ccccc21)Nc1ccc2c(c1)OCCO2
  A = -5	B = -7	C = -1	D = -7%	E = -1.4	F = -2	G = 0.7%[38.3 µM]

O=C(OCCOc1ccc(Br)cc1)c1cnccn1
  A = -8	B = 0	C = -4	D = 11%	E = -3.8	F = -5	G = 0.8%

CCc1ccc(NC(=S)NC(=O)CC(C)C)cc1
  A = 1	B = 11	C = 2	D = 5%	E = 2.5	F = 8	G = 4.6%

COC(=O)CC(NC(=O)Nc1ccccc1F)c1ccc2c(c1)OCO2 (stereo unspecified)
  A = -7	B = 3	C = -3	D = 16%	E = -4.3	F = .	G = 3.1%

COc1ccc(Cc2nnc(N)s2)cc1
  A = 10	B = 1	C = 2	D = ?	E = -3.4	F = 4	G = -0.9%

CCOC(=O)C1CCN(C(=O)COC(=O)c2cc(-c3cccs3)nn2-c2ccccc2)CC1
  A = 3	B = 4	C = -8	D = .	E = -2.6	F = -1	G = 2.4%

CCOc1cccc(/C(O)=C2/C(=O)C(=O)N(Cc3cccnc3)C2c2ccco2)c1 (stereo unspecified)
  A = -5	B = -15	C = 2	D = 5%	E = -2.5	F = -7	G = -5.8%

NC(=O)N(N)c1nc(N2CCCC2)nc(N2CCCC2)n1
  A = -2	B = -3	C = 4	D = .	E = 0.2	F = -2	G = 0.6%

CCn1cc(C(=O)NCCCN(CC(C)C)CC(C)C)c(=O)c2cc(S(=O)(=O)N(C)C3CCCCC3)ccc21
  A = -6	B = -12	C = 3	D = 12%	E = -4.0	F = .	G = 0.9%&-0.3%

O=C1OCCC1=COCCCCOC=C1CCOC1=O
  A = 2	B = .	C = 3	D = .	E = -4.0	F = 0	G = -1.2%

COc1ccc(C2=CC(c3ccc(OC)c(OC)c3)NC(=S)N2)cc1 (stereo unspecified)
  A = ?	B = 4	C = -1	D = 12%	E = 9.3	F = 0	G = -1.6%

COCCNC(=O)CN(Cc1cccs1)C(=O)CCC(=O)Nc1nccs1
  A = -7	B = -5	C = -5	D = 4%	E = -2.2	F = 0	G = -1.2%

C=CCNc1nc(NCc2cccc(OC)c2)c2sc(-c3ccccc3)cc2n1
  A = -7	B = .	C = 1	D = .	E = 2.8	F = 0	G = ?

Some of the entries so far, in CSV form.
Structure,D2 PAM,TRPV1 potentiator,Six1-Eya2 inh,Sfp inh,D2 ag,CtBP-E1A blk,PINK1 expr mod
CCOc1cccc(/C(O)=C2/C(=O)C(=O)N(Cc3cccnc3)C2c2ccco2)c1 (stereo unspecified),-5,-15,2,5%,-2.5,-7,-5.8%
NC(=O)N(N)c1nc(N2CCCC2)nc(N2CCCC2)n1,-2,-3,4,.,0.2,-2,0.6%
CCn1cc(C(=O)NCCCN(CC(C)C)CC(C)C)c(=O)c2cc(S(=O)(=O)N(C)C3CCCCC3)ccc21,-6,-12,3,12%,-4.0,.,0.9%&-0.3%

The listing continues.
Short forms: A = D2 PAM; B = TRPV1 potentiator; C = Six1-Eya2 inh; D = Sfp inh; E = D2 ag; F = CtBP-E1A blk; G = PINK1 expr mod
COc1ccc(CCNCc2ccc(-c3ccccc3)cc2)cc1OC
  A = -19	B = .	C = -14	D = .	E = -0.4	F = -28	G = 8.3%

COc1ccc(CNC(=O)c2cnn3c(C(F)F)cc(C)nc23)cc1OC
  A = -8	B = 12	C = -14	D = 7%	E = -2.5	F = -7	G = 2.0%

CCOC(=O)C1=C(C)OC(N)=C(C#N)C1c1cncc(-c2ccc(F)cc2)c1 (stereo unspecified)
  A = 0	B = 0	C = 7	D = -1%	E = 2.2	F = -6	G = 1.6%

COC(=O)C1N[C@@H]([C@@H](NC(=O)COc2ccccc2)C(=O)NCc2ccc(OC)cc2)SC1(C)C (stereo partly specified)
  A = -6	B = .	C = 9	D = .	E = 3.9	F = 3	G = -0.8%

COc1cccc(/C=N/n2nnnc2N)c1OCc1ccccc1Cl
  A = -1	B = 3	C = -2	D = 7%	E = -2.5	F = 0	G = 5.8%

Cn1ccnc1-c1nnn(-c2ccc(F)cc2)n1
  A = -5	B = .	C = 2	D = .	E = -0.1	F = 6	G = 0.0%

O=C(N/N=C/c1ccc2nccnc2c1)c1ccc(Br)cc1
  A = 5	B = -9	C = -5	D = 7%	E = 2.8	F = .	G = 6.4%

COc1ccc(C(=O)NNC(=O)Cn2nnc(-c3ccc(OC)c(OC)c3)n2)cc1
  A = -14	B = -1	C = 4	D = 23%	E = -5.5	F = .	G = 2.3%
